MenB inh – M. tuberculosis MenB inhibitors, primary screen, biochemical, absorbance; 1,4-dihydroxy-2-naphthoyl-CoA synthase (Mycobacterium tuberculosis (strain ATCC 25618 / …; MenB enzyme assay, absorbance read-out; some hits fall short of the stated cut; inhibition, %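 (about 12 µg/mL by stock and volumes)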; 100,000 tested, 0.43% active; AID 540299, 2011;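 active = mean of two replicates above 30%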;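 also: 0% = no compound and 100% = wells with inactive enzyme; the first replicate is given; strong numbers were not always called active; inactives centre near -10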
MbtI inh – MbtI salicylate synthase inhibitors, primary screen, biochemical, fluorescence intensity; AID 493033, 2011; inhibition, %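 (about 17 µg/mL by stock and volumes)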; 100,000 tested, 0.89% active; purified MbtI enzyme, fluorescence intensity read-out;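 active = above 50% in both replicates, above 80% if mildly self-fluorescent; inactive = the rest, strongly fluorescent compounds included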;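 also: 0% = mean of negative and 100% = mean of positive controls; one replicate is shown; some compounds called inactive have numbers as strong as hits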
Target sequence (P9WFX0 whole entry, looked up): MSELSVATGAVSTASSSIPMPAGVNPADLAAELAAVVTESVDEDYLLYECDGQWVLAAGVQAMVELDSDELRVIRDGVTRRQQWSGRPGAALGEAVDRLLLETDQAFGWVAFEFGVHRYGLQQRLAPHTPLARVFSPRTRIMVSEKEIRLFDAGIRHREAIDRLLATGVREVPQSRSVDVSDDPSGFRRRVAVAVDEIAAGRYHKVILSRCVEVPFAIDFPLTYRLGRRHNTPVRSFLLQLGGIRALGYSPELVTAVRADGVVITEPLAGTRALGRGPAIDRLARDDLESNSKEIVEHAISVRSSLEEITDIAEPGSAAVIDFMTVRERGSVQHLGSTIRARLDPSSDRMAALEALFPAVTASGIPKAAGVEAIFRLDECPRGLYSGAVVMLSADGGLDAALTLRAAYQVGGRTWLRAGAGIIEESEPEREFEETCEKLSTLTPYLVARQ
Polio RdRp inh – poliovirus RdRp elongation inhibitors, primary screen, biochemical, fluorescence polarization, total intensity; Genome polyprotein (Poliovirus type 1 (strain Mahoney)), P03300; poliovirus polymerase elongation; hits give low values; % elongation, % (compound at 16.7 µg/mL); 150,000 tested, 0.66% active; AID 588519, 2011; in the data active = % elongation below about 90%; also: some results filed as inactive read as strong as hits
Target sequence (P03300 1749-2209 limits assumed): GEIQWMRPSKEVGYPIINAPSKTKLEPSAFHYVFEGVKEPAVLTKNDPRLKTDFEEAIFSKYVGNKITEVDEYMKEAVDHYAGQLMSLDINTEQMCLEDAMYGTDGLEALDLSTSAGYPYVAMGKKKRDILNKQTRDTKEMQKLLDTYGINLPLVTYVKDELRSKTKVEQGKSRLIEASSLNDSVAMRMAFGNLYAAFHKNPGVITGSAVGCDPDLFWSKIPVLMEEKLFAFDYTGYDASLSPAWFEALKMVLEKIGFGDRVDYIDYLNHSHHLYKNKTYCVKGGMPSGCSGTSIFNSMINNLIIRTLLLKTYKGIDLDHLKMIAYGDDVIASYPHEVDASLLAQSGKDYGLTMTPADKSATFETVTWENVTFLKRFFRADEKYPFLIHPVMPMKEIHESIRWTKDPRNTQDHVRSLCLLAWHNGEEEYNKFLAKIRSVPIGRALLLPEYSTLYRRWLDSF
Polio RdRp inh intensity – further read-out of Polio RdRp inh, marked with its call; % elongation; measured here: total intensity read-out; formula for this scale not given here;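 total fluorescence in place of polarization; lower means less elongation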
Active calls of the source: *; . = not tested or not shown.

#1 CCOC(=O)c1ccccc1NC(=O)CC(C)CC(=O)O (configuration not stated)
#2 CCC(C)c1ccc(NC(=O)c2ccc(N(CC)CC)cc2)cc1 (configuration not stated)
#3 N=C1S/C(=C/c2ccco2)C(=O)N1c1nccs1
#4 N#CCn1cnc2c(cnn2-c2ccccc2)c1=O
#5 S=C(NCc1ccc2c(c1)OCO2)N(Cc1ccco1)Cc1cccs1
#6 CCC1Oc2ccc(C)cc2N(CC(=O)NCCCN2CCN(c3ccccc3F)CC2)C1=O (configuration not stated)
#7 Cc1sc2nc(CN3CCN(C(=O)c4ccco4)CC3)n(C(=O)c3ccco3)c(=O)c2c1C
#8 Oc1ccc(C(=S)N2CCCCCC2)cc1

compound no. | 1 | 2 | 3 | 4 | 5 | 6 | 7 | 8
MenB inh | -6 | -16 | -80 | -5 | -39 | 4 | -33 | -24
MbtI inh | 117 | . | . | 24 | 60* | 11 | 18 | 84*
Polio RdRp inh | 101 | 102 | 112 | 101 | 88* | 99 | 104 | 97
Polio RdRp inh intensity | 100 | 103 | 124 | 100 | 91* | 103 | 102 | 101

#9 C=CCn1c(NC(=O)COc2ccccc2)nc2ccccc21
#10 CC(=N/Nc1nnc(C)n1N)/C(C)=N/Nc1nnc(C)n1N
#11 COc1ccc(CCNC(=O)CSc2nncn2C)cc1
#12 CCc1ccccc1NC(=O)C1=CC(c2cccc(OC)c2)=NS(=O)(=O)N1C
#13 CCN(CC)C(=O)Cn1c(C)c(C#N)c2ccccc21
#14 COC(=O)c1cc(S(=O)(=O)N(C)Cc2ccccc2)c[nH]1
#15 Clc1ccc(N2CCCCCCC2)nn1
#16 CCC1C(=NO)C(CC)C(c2ccccc2)NC1c1ccccc1 (configuration not stated)

compound no. | 9 | 10 | 11 | 12 | 13 | 14 | 15 | 16
MenB inh | -68 | -10 | -18 | -8 | -15 | 8 | -8 | -6
MbtI inh | 1 | 3 | -5 | 2 | 2 | -13 | -7 | 3
Polio RdRp inh | 103 | 102 | 102 | 102 | 101 | 99 | 103 | 104
Polio RdRp inh intensity | 99 | 104 | 98 | 104 | 105 | 102 | 100 | 103

#17 Cc1cccc(NC(=O)CN2NS(=O)(=O)c3ccccc3C2=O)c1
#18 COC(=O)c1cc2c(C)nn(Cc3ccccc3Cl)c2s1
#19 O=S(=O)(c1ccc(Cl)cc1)N1CCC2(CC1)OCCO2
#20 N#CCC(=O)c1nsc(Cl)c1Cl
#21 Cn1cccc1Cc1nnc(SCC(=O)Nc2ccc3c(c2)OCO3)n1-c1ccc(F)cc1
#22 Cc1nc2ccccn2c1-c1ccnn1C(=O)c1ccc(C(F)(F)F)cc1
#23 O=C(COc1ncnc2ccccc12)NCc1ccccc1
#24 CCc1cc2ccccc2nc1Cl

compound no. | 17 | 18 | 19 | 20 | 21 | 22 | 23 | 24
MenB inh | -27 | 7 | -7 | 15 | -11 | -3 | . | 10
MbtI inh | -10 | 52 | -11 | . | -3 | -24 | 2 | -1
Polio RdRp inh | . | 101 | 103 | 112 | 102 | 100 | 105 | 104
Polio RdRp inh intensity | . | 99 | 105 | 108 | 102 | 97 | 105 | 102

#25 CC(OC(=O)c1ccccc1NS(C)(=O)=O)c1nnc(-c2cccs2)o1 (configuration not stated)
#26 c1csc(CNC2CCCC2)c1
#27 CCCNC(=O)CC(c1cccs1)N1Cc2ccccc2C1=O (configuration not stated)
#28 CCN1C(N)=C(C#N)C2(CCNCC2)c2nc(C)oc21
#29 COC(=O)c1c(C)oc(C)c1S(=O)(=O)NC1CCCCCCCCCCC1
#30 O=C(O)Cn1cc(Br)c(=O)[nH]c1=O
#31 CCCOc1ccc2oc(=O)c3c(c2c1)CCCN3C(=O)CN(C)c1ccc(C)cc1
#32 CCc1ccc(NC(=O)C(C)OC(=O)c2cccnc2Cl)cc1 (configuration not stated)

compound no. | 25 | 26 | 27 | 28 | 29 | 30 | 31 | 32
MenB inh | 3 | 18 | -19 | -36 | 2 | -6 | -23 | .
MbtI inh | -150 | -4 | -12 | . | -2 | 9 | 6 | -8
Polio RdRp inh | 97 | 100 | 105 | 98 | 102 | 100 | 101 | 100
Polio RdRp inh intensity | 95 | 104 | 101 | 112 | 109 | 96 | 102 | 103

#33 O=C(O)CSC(=S)c1ccccc1
#34 Cc1cnc(NC(=O)c2c(C)noc2C)s1
#35 C/C(=N\NC(=S)NCC1CCCO1)c1ccc(OCC(=O)N(C)C)cc1 (configuration not stated)
#36 O=C(Nc1ccc2c(c1)OCO2)NN1CCOCC1
#37 Nc1cc[n+](CC(O)CO)cc1 (configuration not stated)
#38 CCc1ccc(NC(=O)C2c3ccccc3C(=O)N(C)C2c2cccs2)cc1 (configuration not stated)
#39 O=C(c1ccc2c(c1)N(Cc1ccccc1)C(=O)c1ccccc1S2=O)N1CCCC1 (configuration not stated)
#40 CC(C)(C)C(=O)/C(C#N)=C/c1ccc2c(c1)OCCO2

compound no. | 33 | 34 | 35 | 36 | 37 | 38 | 39 | 40
MenB inh | -10 | -3 | 0 | -11 | -11 | 2 | 3 | -1
MbtI inh | 4 | 19 | 18 | -8 | -49 | -2 | 2 | -1
Polio RdRp inh | 96 | 111 | 102 | 98 | 106 | 98 | 100 | 96
Polio RdRp inh intensity | 97 | 114 | 100 | 102 | 64 | 100 | 101 | 101

#41 CCS(=O)(=O)N1CCCC(C(=O)NCCc2ccccc2)C1 (configuration not stated)
#42 COc1ccc(N2CCN(c3ccc(NC(=O)C4CCCCC4)cc3C#N)CC2)cc1
#43 COc1ccc(S(=O)(=O)Nc2ccccc2C(=O)NC(C)C)cc1OC
#44 Oc1ccccc1-c1cc(-c2ccccc2)n[nH]1
#45 O=C(c1cn[nH]c1C1CCNCC1)N1CCC(c2ccccc2)C1 (configuration not stated)
#46 O=C(O)CSc1nc2ccccc2o1
#47 CC(OC(=O)c1cccc(N(C)C)c1)C(=O)N1CCc2ccccc21 (configuration not stated)
#48 Brc1ccc(CN2CCNCC2)s1

compound no. | 41 | 42 | 43 | 44 | 45 | 46 | 47 | 48
MenB inh | -5 | 5 | -23 | -6 | 0 | -11 | 13 | -29
MbtI inh | 0 | 45 | 9 | -10 | -11 | -6 | 38 | -21
Polio RdRp inh | 103 | 99 | 103 | 102 | 103 | 101 | 106 | 102
Polio RdRp inh intensity | 109 | 101 | 105 | 99 | 102 | 106 | 99 | 102

#49 COc1cccc(C(=O)OC(C)C(=O)Nc2ccc(N(C)C)cc2)c1 (configuration not stated)
#50 COc1ccccc1-c1cc2ccccc2oc1=O
#51 O=C(Nc1ccc(Cl)cc1)N1CCC(C(c2ccccc2)c2ccccc2)CC1
#52 O=C(Nc1sc2c(c1Sc1nnnn1-c1ccccc1)CCCC2)c1ccccc1
#53 CCN(C(=O)c1c(-c2c(Cl)cccc2Cl)noc1C)c1ccccc1C
#54 CC1Oc2ccccc2N(CC(=O)Nc2ccccc2F)C1=O (configuration not stated)
#55 Cc1nn(C)c(C)c1CN(C)C(=O)c1cnn2c1NC(c1ccccc1)CC2C(F)(F)F (configuration not stated)
#56 CCS(=O)(=O)Nc1cccc(C(=O)CC2(O)C(=O)Nc3ccc(Br)cc32)c1 (configuration not stated)

compound no. | 49 | 50 | 51 | 52 | 53 | 54 | 55 | 56
MenB inh | -37 | . | -19 | 15 | 0 | -5 | -7 | 0
MbtI inh | -1 | -367 | -12 | -64 | 1 | 0 | . | 13
Polio RdRp inh | 100 | 105 | 107 | 103 | 102 | 102 | 105 | 99
Polio RdRp inh intensity | 96 | 108 | 108 | 103 | 106 | 102 | 113 | 104

Compounds shown so far containing an aryl methoxy group:
#11 COc1ccc(CCNC(=O)CSc2nncn2C)cc1
#12 CCc1ccccc1NC(=O)C1=CC(c2cccc(OC)c2)=NS(=O)(=O)N1C
#42 COc1ccc(N2CCN(c3ccc(NC(=O)C4CCCCC4)cc3C#N)CC2)cc1
#43 COc1ccc(S(=O)(=O)Nc2ccccc2C(=O)NC(C)C)cc1OC
#49 COc1cccc(C(=O)OC(C)C(=O)Nc2ccc(N(C)C)cc2)c1 (configuration not stated)
#50 COc1ccccc1-c1cc2ccccc2oc1=O

compound no. | 11 | 12 | 42 | 43 | 49 | 50
MenB inh | -18 | -8 | 5 | -23 | -37 | .
MbtI inh | -5 | 2 | 45 | 9 | -1 | -367
Polio RdRp inh | 102 | 102 | 99 | 103 | 100 | 105
Polio RdRp inh intensity | 98 | 104 | 101 | 105 | 96 | 108

Further records follow:
#57 O=C(c1ccco1)N1CCN(C(=O)c2ccc(CS(=O)c3ccc(Br)cc3)o2)CC1 (configuration not stated)
#58 C#CC(CCN1CCCCC1)(OC)c1ccccc1 (configuration not stated)
#59 O=C1NC(=S)S/C1=C\c1ccc(-c2ccc(S(=O)(=O)N3CCOCC3)cc2)o1
#60 Cc1ccc(NC(=O)Cc2nc(CSc3nnc(-c4ccc5c(c4)OCO5)o3)cs2)cc1
#61 c1ccc(-c2nnc(SCCC3OCCCO3)o2)cc1
#62 CCCNC(=O)Nc1cc(C)on1
#63 O=c1c2ccccc2nc(-c2ccccc2)n1/N=C/c1ccccc1O
#64 O=C(NCc1ccco1)c1ccc(COCC(F)(F)C(F)F)cc1

compound no. | 57 | 58 | 59 | 60 | 61 | 62 | 63 | 64
MenB inh | -6 | -4 | -91 | -32 | -14 | -17 | -108 | 14
MbtI inh | -5 | -3 | 63 | -12 | 5 | 1 | . | -3
Polio RdRp inh | 103 | 102 | 121 | 106 | 103 | 103 | 111 | 100
Polio RdRp inh intensity | 103 | 99 | 119 | 103 | 107 | 96 | 120 | 105

#65 COc1cccc(OC)c1OCCOc1ccccc1C
#66 CC1(c2ccccc2NC(=O)c2cccs2)CC1
#67 CN(C)c1cc(C(F)(F)F)nc2cc(C(C)(C)C)nn12
#68 Cc1cc(-c2ccccc2)nc2cc(C(N)=O)nn12
#69 CC1CCN(C(=O)NC(C(F)(F)F)C(F)(F)F)CC1
#70 CCOC(=O)Cc1c(-c2ccccc2)c2cc(Cl)ccc2[nH]c1=O
#71 O=C1CCN(Cc2ccccc2)C(=O)N1
#72 CCN1C(=O)C(=Cc2ccc(N3CCOCC3)cc2OC)C(=O)N(CC)C1=S

compound no. | 65 | 66 | 67 | 68 | 69 | 70 | 71 | 72
MenB inh | -18 | -6 | -8 | 0 | 8 | 3 | -12 | -17
MbtI inh | -6 | . | -47 | 27 | -10 | -8 | 4 | .
Polio RdRp inh | 97 | 98 | 106 | 104 | 100 | 104 | 102 | 107
Polio RdRp inh intensity | 102 | 105 | 110 | 105 | 105 | 98 | 106 | 110

#73 O=C1CC(=O)N(CCC2=CCCCC2)C(=O)N1
#74 CCN(Cc1ccccc1)S(=O)(=O)c1c[nH]c(C(=O)OC)c1
#75 Cc1ccccc1COC(=O)CCC1=NS(=O)(=O)c2ccccc2N1
#76 CC(/C=N/n1c(COc2ccccc2)n[nH]c1=S)=C\c1ccco1
#77 CN1CCC2(CC1)CC(=O)c1ccccc1O2
#78 CCOC(=O)C1CCN(S(=O)(=O)c2ccc(N3C(=O)CC4(CCCC4)C3=O)c(Cl)c2)CC1
#79 CC(C)(C)C(=O)C(Cc1c(F)cccc1Cl)C(=O)C(C)(C)C
#80 Cc1cccc(NC2=C(n3nnc4ccccc43)C(=O)c3ccccc3C2=O)c1

compound no. | 73 | 74 | 75 | 76 | 77 | 78 | 79 | 80
MenB inh | -35 | -9 | 3 | -43 | -17 | -5 | -13 | -31
MbtI inh | -3 | -10 | -22 | . | 89 | -8 | -10 | -6
Polio RdRp inh | 99 | 103 | 100 | 97 | 101 | 102 | 102 | 98
Polio RdRp inh intensity | 104 | 103 | 102 | 101 | 100 | 105 | 109 | 96

#81 COCCn1c(C)cc(C2=NNC(=NCc3ccc(OC)cc3)SC2)c1C
#82 Cc1n[nH]c(C)c1-c1ccccc1O
#83 CS(=O)(=O)c1nc2ccccc2n1CC(=O)N1CCCC1
#84 c1ccc(-c2csc(Nc3nc(NCc4ccco4)nc(N4CCCCC4)n3)n2)cc1
#85 Cc1ccc(NC(=O)Cn2ccccc2=O)cc1
#86 O=C(NC1CC2CCCC(C1)N2C(=O)NCc1ccccc1)C1CC1 (configuration not stated)
#87 CSc1nc(-c2ccccc2)ccc1C#N
#88 O=C(O)c1oc2ccccc2c1CSC1=NCCS1

compound no. | 81 | 82 | 83 | 84 | 85 | 86 | 87 | 88
MenB inh | -28 | . | -11 | 3 | 13 | 3 | -37 | 6
MbtI inh | 12 | -3 | 8 | . | 1 | -18 | -94 | 2
Polio RdRp inh | 106 | 103 | 105 | 101 | . | 102 | 99 | 96
Polio RdRp inh intensity | 115 | 98 | 109 | 104 | . | 102 | 103 | 103

#89 Cc1ccc2oc(=O)c3cc(C(=O)N(Cc4ccco4)C4CCCCC4)sc3c2c1
#90 O=C(CN1C(=O)c2ccccc2C1=O)OC(C(=O)NC1CCCC1)c1ccncc1 (configuration not stated)
#91 COC(=O)c1ccc(CSc2nnc(-c3ccccc3)n2-c2ccccc2)o1
#92 CC(C)CC(NC(=O)c1ccc(C#CC(C)(C)O)s1)C(=O)O (configuration not stated)
#93 CC1=NN(C(=O)c2cccnc2)C(C)(O)C1 (configuration not stated)

compound no. | 89 | 90 | 91 | 92 | 93
MenB inh | -16 | -28 | -20 | -33 | -7
MbtI inh | 10 | -8 | -17 | 22 | 4
Polio RdRp inh | 104 | 107 | 101 | 100 | 102
Polio RdRp inh intensity | 107 | 101 | 100 | 99 | 103
